Bioassay records: PubChem, National Center for Advancing Translational Sciences (NCATS)
PINK1 expr mod = changes PINK1 expression; PINK1 immunofluorescence, high-content cytometry, 24 h; Potency, µM (highest dose often 76.6 µM), without a hit: at the highest dose activation (PINK1 increase), hits mostly activators; 0.2% of 410,000 active; active = well fitted activation curve with a large enough effect; inconclusive = small, poorly fitted or top-dose-only effect; inactive = flat fitted curve, though single readings scatter; cell line not stated here;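 also: potency is read from the fitted curve at half-maximal effect; % of control where 0% means no effect; nearly all actives have a fitted effect of over 65% in size; a mitochondrial uncoupler was the plate control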
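Measures PINK1 amount and localization on or inside mitochondria by immunofluorescence. Stable cells get compounds at 5 concentrations for 24 hours before fixation and staining; CCCP controls included.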
TRPML1 ag = human mucolipin-1 channel agonism | AID 624414 | activation, % (test concentration not listed) | TRPML1-expressing cells, Ca2+ dye fluorescence, FDSS; host cell line not named in the record; reference of the full effect not given here | Q9GZU1 | 0.12% of 410,000 active; in the data active = activation above about 50%; inconclusive = about 30% to 50%; inactive = below about 30%; also: 0% is about no effect; the text of the record puts the active cut at 80%
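Tetracycline-induced TRPML1-DL cells are seeded and incubated overnight before loading with a no-wash Ca2+ dye and quencher. Agonist activity is taken from the 110 s fluorescence read following compound pin-transfer on an FDSS, before EC80 54-4 challenge.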
D2 ag = human D2 receptor agonism in beta-arrestin assay; AID 624465; 0.084% of 360,000 active; DiscoveRx PathHunter D2 beta-arrestin, luminescence, 90 min; 100% = 57 uM dopamine signal; activation, % (no concentration beside the values); in the data active = activation above about 40%; inconclusive = about 15% to 40%; inactive = below about 15%; also: compound concentration not given in the record; the text of the record calls up to 30% inactive
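DiscoveRx PathHunter D2 beta-arrestin cells (2,100/well) attached overnight, then compound-stimulated 90 min at 37 C in HBSS/10 mM HEPES/0.1% Tween-20 buffer; beta-galactosidase complementation read by luminescence after 1 h at ambient temperature. Dopamine 57 uM final (EC100) as control.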
D2 PAM = human D2 receptor positive allosteric modulation | DiscoveRx D2 beta-arrestin cells, luminescence, 90 min; 100% = 57 uM dopamine signal | potentiation, % (test concentration not listed) | 0.23% of 360,000 active; active = potentiation of 50% or more; inconclusive = 30% to 50%; inactive = 30% or less;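 also: compound concentration not given in the record; tested on top of an EC20 dose of dopamine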
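PathHunter D2 cells, attached overnight at 37 deg C, received compound in DMSO plus dopamine at EC20 (50 nM final) for 90 min at 37 deg C. Beta-arrestin recruitment was read as luminescence after 1 h with detection reagent at ambient temperature.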
CtBP-E1A blk = inhibitors of CtBP/E1A interaction | activity change, % (test concentration not listed) | AlphaScreen GST-E1A/His-CtBP binding, 1536-well; active compounds read low; control for the full effect not named in the record | 0.49% of 340,000 active; in the data active means activity change below about -65%; inconclusive means about -30% to -65%; inactive means above about -30%; also: % is scaled to controls: 0 for no effect and ±100 for the full control effect
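GST-E1A and His-tagged CtBP (125 nM each as 5X stock) were preincubated with pin-transferred compound for 2 h at 37 °C in the dark, then glutathione donor and nickel acceptor beads were added for 1 h before AlphaScreen reading.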
Six1-Eya2 inh = blocks human Six1 binding to Eya2. AID 651725. Q15475+O00167. activity change, % (concentration not given with the values). AlphaScreen GST-Six1/His-Eya2 binding, biochemical; active compounds read low; control for the full effect not named in the record. 0.56% of 360,000 active; in the data active = activity change below about -65%; inconclusive = about -30% to -65%; inactive = above about -30%; also: % is scaled to controls: 0 for no effect and ±100 for the full control effect
Target sequence (O00167 whole entry, looked up): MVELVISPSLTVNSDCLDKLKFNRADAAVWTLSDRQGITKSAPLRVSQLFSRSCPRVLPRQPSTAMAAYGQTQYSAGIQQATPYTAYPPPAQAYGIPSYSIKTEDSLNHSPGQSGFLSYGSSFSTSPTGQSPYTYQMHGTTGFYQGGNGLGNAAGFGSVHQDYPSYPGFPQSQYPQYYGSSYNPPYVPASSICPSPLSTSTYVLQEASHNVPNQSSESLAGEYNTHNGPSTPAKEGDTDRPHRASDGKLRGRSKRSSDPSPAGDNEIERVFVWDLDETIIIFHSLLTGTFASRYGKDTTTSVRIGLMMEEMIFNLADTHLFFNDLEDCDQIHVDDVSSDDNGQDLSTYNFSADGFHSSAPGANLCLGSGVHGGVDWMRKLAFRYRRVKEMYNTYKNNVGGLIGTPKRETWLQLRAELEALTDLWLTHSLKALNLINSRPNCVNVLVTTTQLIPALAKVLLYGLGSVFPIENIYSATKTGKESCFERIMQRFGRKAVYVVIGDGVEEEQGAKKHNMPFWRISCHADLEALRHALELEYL
Target sequence (Q15475 whole entry, looked up): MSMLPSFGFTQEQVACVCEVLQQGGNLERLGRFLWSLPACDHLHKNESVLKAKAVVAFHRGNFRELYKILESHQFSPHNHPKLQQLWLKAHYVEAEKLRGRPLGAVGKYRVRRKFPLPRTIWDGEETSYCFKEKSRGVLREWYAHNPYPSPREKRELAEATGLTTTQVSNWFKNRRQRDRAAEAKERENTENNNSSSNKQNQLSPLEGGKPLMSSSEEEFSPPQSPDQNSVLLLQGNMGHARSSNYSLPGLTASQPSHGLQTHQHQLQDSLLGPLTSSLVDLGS
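AlphaScreen with GST-Six1 and His-Eya2 (5X mix: 250 nM and 500 nM), glutathione donor and nickel acceptor beads; buffer 50 mM Tris pH 8.0, 300 mM NaCl, 1 mM TCEP; 1 h at 37 C in the dark.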
* = called active by the depositor; ? = inconclusive; . = not tested or not shown; [ ] = dose if it differs, or a comment.

Under each structure – PINK1 expr mod	TRPML1 ag	D2 ag	D2 PAM	CtBP-E1A blk	Six1-Eya2 inh
1. CCOc1cc(/C=C2\N=C(SC(C)C(N)=O)N(c3ccc(OC(F)F)cc3)C2=O)ccc1O (configuration not stated)
 : 6.0%	11	-1.4	-8	-11	-5
2. COCCN1C(=O)c2ccccc2C(C(=O)NCC2CCCO2)C1c1c[nH]c2ccccc12 (configuration not stated)
 : -0.2%	-0.2	-3.8	-7	0	-5
3. Cc1ccccc1CCNC(=O)C1CCC(=O)N(CCc2cccc(F)c2)C1 (configuration not stated)
 : -1.1%	0.6	2.6	-1	5	1
4. CC1(C)Cc2c(sc(NC(=O)c3ccc(C(=O)c4ccccc4)cc3)c2C#N)C(C)(C)N1
 : 2.3%	0.1	-7.3	-25	-8	-15
5. COc1cccc(OC)c1OCC(O)CN1CCN(c2ccc(F)cc2)CC1 (configuration not stated)
 : 0.0%	1.1	4.2	-25	0	0
6. COc1ccccc1C=NN1C(=O)CSC1=S
 : 1.3%	0.6	3.6	3	?	-27
7. CCN(CC)CCCNC(=O)CSc1nc(-c2ccc(F)cc2)cc(C(F)(F)F)n1
 : -1.1%	-0.9	-3.9	-18	-3	-3
8. COc1ccc(-n2nnnc2C(c2cccc3ccccc23)N2CCN(C/C=C/c3ccccc3)CC2)cc1 (configuration not stated)
 : 2.7%	0.3	-7.1	-14	?	-30
9. O=C(NCc1ccco1)c1ccccc1NS(=O)(=O)c1ccc(Br)s1
 : 11%	0.0	-2.5	-8	4	2
10. S=c1[nH]nc(Cc2cccc3ccccc23)n1-c1ccccc1
 : -1.2%	-0.1	2.4	-3	1	-2
11. COc1ccc(C2=NN(C(=O)c3ccco3)C(c3ccco3)C2)cc1OC (configuration not stated)
 : 1.0%	1.5	8.8	16	?	-30
12. CN(C(=O)C1CCN(S(=O)(=O)c2cccs2)CC1)C1CCCCC1
 : -1.3%[38.3 µM]	0.6	-1.4	-25	4	5
13. COCC(=O)Nc1cc(C)cn(Cc2c(F)cccc2Cl)c1=O
 : -0.6%	1.0	0.9	4	2	26
14. O=C(NC1CCCC1)C(c1ccncc1)N(C(=O)Cn1nnc(-c2ccccc2F)n1)c1cccc(F)c1 (configuration not stated)
 : -2.0%	0.4	-3.3	3	-4	6
15. Cc1nnc(NC(=O)CSc2nc3c(c(=O)n(C)c(=O)n3C)n2C(C)C)s1
 : 1.4%	-0.9	-2.6	9	4	4
16. Cc1ccc(CC(=O)N(C)CC(=O)N(CC(C)C)c2c(N)n(CC(C)C)c(=O)[nH]c2=O)cc1C
 : -3.4%	0.4	1.8	5	5	-1
17. CC[n+]1ccc(/C=C2\Sc3ccccc3N2CCCS(=O)(=O)[O-])c2ccccc21
 : -1.6%	0.8	4.1	-5	-2	-1
18. OCCCNc1c2ccccc2nc2ccccc12
 : -1.9%	-0.3	0.3	-2	-19	-27
19. Cc1ccc(NC(=O)COC(=O)CCOc2ccccc2C)cc1
 : 1.9%	2.5	2.2	-5	10	7
20. COc1ccc(/C=N/NC(=O)CC2N=C(Cc3ccccc3)NNC2=O)cc1OC (configuration not stated)
 : -0.5%	0.3	-2.8	-6	-15	-11
21. O=C(Cc1ccccc1Cl)NCc1cccnc1
 : 5.1%	1.0	-3.3	-3	-1	4
22. Cc1c(CC(=O)N2CCN(C(=O)C3COc4ccccc4O3)CC2)c(=O)oc2c(O)c(O)ccc12 (configuration not stated)
 : -1.9%	0.5	4.2	?	-5	10
23. COc1ccc(OC)c(-c2csc(NC(=O)c3ccc(OCC4CCCO4)cc3)n2)c1 (configuration not stated)
 : -0.6%	-0.9	-1.7	2	.	16
24. Cc1ccc(S(=O)(=O)N(C)c2ccc(OCC(=O)Nc3cc(C(=O)O)ccc3Cl)cc2)cc1
 : -0.1%	2.1	6.1	0	1	1
25. COc1ccc(NCCC#N)cc1
 : -0.7%[38.3 µM]	-0.4	-1.9	-14	6	3
26. NC(=O)N1N=C2/C(=C/c3ccccc3)CCCC2C1c1ccccc1 (configuration not stated)
 : 2.8%	1.8	0.0	-1	-2	-8
27. Cc1ccc(NC(=O)COC(=O)CCC(=O)c2ccc(C(C)(C)C)cc2)c([N+](=O)[O-])c1
 : -0.6%	1.4	0.1	-11	?	?
28. Cc1ccc(C2CC(c3cccc(C)c3)n3ncnc3N2)cc1 (configuration not stated)
 : 3.8%	0.2	-2.0	-5	-1	3
29. Cc1ccc(S(=O)(=O)n2c(C)nc3cc(C)ccc32)cc1
 : 0.2%	0.0	3.4	0	-1	10
30. CC(=O)CSc1nnc(NC(=O)CCc2ccccc2)s1
 : 2.3%	-1.0	-1.4	-2	2	-2
31. O=C(NNC(=O)c1ccc(Cl)c(S(=O)(=O)Nc2ccc(Cl)cc2)c1)c1ccc(=O)[nH]c1
 : 0.4%	0.1	-5.5	-5	-10	-5
32. CN1CCC(N(C)CC(=O)Nc2cccc(Oc3ccccc3)c2)CC1
 : -0.9%[38.3 µM]	-0.8	-2.3	-12	-5	0
33. CC(C)(O)C#Cc1ccc(C(=O)NCc2ccccc2)s1
 : -1.4%	-1.1	2.3	-6	1	-1
34. O=C(NCc1ccccc1)C(c1ccccc1)N(C(=O)c1csnn1)C1CC1 (configuration not stated)
 : -1.7%	1.8	6.0	-1	-16	7
35. CC1=C(C(=O)OCc2ccc([N+](=O)[O-])cc2)N2C(=O)C(NC(=O)Cc3ccccc3)C2SC1 (configuration not stated)
 : 2.3%	0.6	-1.4	-3	15	-1
36. Cc1cc(NC(=O)C(C)(C)C)no1
 : 2.9%	0.0	-0.4	-5	5	16
37. CCOc1cc(/C=C2\C(=N)N3N=C(S(C)(=O)=O)SC3=NC2=O)ccc1OCCOc1cccc(OC)c1
 : 7.5%	1.0	0.1	5	-12	3
38. CCN(CC)c1ccc(S(=O)(=O)N(CC)CC)cc1NC(=O)C1CCCC1
 : 7.0%	1.7	0.2	-6	2	7
39. O=C(COC(=O)Cc1ccc(-c2ccccc2)cc1)NCc1ccc(F)cc1
 : 12%	3.3	-5.7	-5	2	15
40. CS(=O)(=O)n1nc(-c2ccccc2)nc1NCc1ccco1
 : -0.9%	1.9	-3.3	-5	-1	-1
41. COc1ccccc1NC(=O)CSc1nnc(C2CCCCC2)n1-c1ccccc1
 : 0.6%	0.6	-3.6	-10	-2	-7
42. Cc1ccc([N+](=O)[O-])c2c1C(N1CC(C)OC(C)C1)C(C)(C)O2 (configuration not stated)
 : 3.8%	-0.7	-3.6	-2	1	3
43. COc1ccc([N+](=O)[O-])c(OC)c1C(=O)NC(=O)Nc1nc(C)cc(C)n1
 : 0.9%	2.4	0.5	-12	16	13
44. Cc1cc(NC(=O)C2COc3ccccc3O2)no1 (configuration not stated)
 : 0.0%	-1.0	-7.5	-14	-9	8
45. Cc1nn(C)c(C)c1CCC(=O)NC1CC(C)(C)Cc2c1cnn2-c1ccccc1 (configuration not stated)
 : -0.5%	-0.7	-3.8	4	6	-7
46. CCC(=O)c1cc2c(C)cc(=O)oc2c(C)c1OC(C)=O
 : -2.5%	0.4	-1.1	2	-14	-3
47. CC(=O)Nc1ccc(NC(=O)c2ccc(C)c(S(=O)(=O)Nc3cccc(C)c3)c2)cc1
 : 1.4%	0.6	3.9	-4	-14	6
48. CC(=O)Nc1ccc(-c2cc(C(=O)O)c3ccc(C)cc3n2)cc1
 : 2.9%	0.7	-1.2	-4	3	-10
49. O=C(CCl)N1CCN(S(=O)(=O)c2ccc3c(c2)CCC3)CC1
 : -1.4%	-0.1	-5.4	-22	4	6
50. O=C(O)/C=C/C(=O)Nc1ccc(N2CCOCC2)nc1N1CCOCC1
 : -0.6%	-0.2	3.7	2	3	-2
51. Cc1ccc(NS(=O)(=O)c2csc(C(N)=O)c2)c(C)c1
 : 0.6%	0.7	-7.0	-7	.	5
52. COC(=O)c1ccc(NC(=O)N(c2ccccc2)c2ccccc2)cc1
 : 4.1%	1.5	3.3	-8	.	3
53. CCCn1c(C)cc(/C=C(\C#N)C(=O)OCC(=O)Nc2cccc(OC)c2)c1C
 : 0.4%	1.6	-1.4	-3	21	2
54. CCC1CCCCN1CCn1c(=S)[nH]c2cc(OC)c(OC)cc2c1=O (configuration not stated)
 : 8.5%[38.3 µM]	-0.7	-0.5	-13	-7	-7
55. CC(C)CN(C(=O)CSc1ccc2c(c1)OCCO2)c1c(N)n(CC(C)C)c(=O)[nH]c1=O
 : -0.3%	0.7	1.3	-14	-6	9
56. COC(=O)c1c(C(=O)OC)c(-c2ccc(OC)cc2)n2c1CS(=O)C2 (configuration not stated)
 : -0.7%	1.1	-2.8	-3	.	3
57. COc1cccc(CN2CC(C(=O)N(C)Cc3ccc(C)cc3)CCC2=O)c1 (configuration not stated)
 : -0.7%	-1.0	0.8	-8	3	1
58. CCC(C)NC(=O)CSc1nc2ccccc2c(=O)n1CCCN1CCCCC1 (configuration not stated)
 : 0.5%	1.0	-4.2	0	-5	7
59. CC1CCN(C(=O)CSc2nc3c(cnn3-c3ccc(Cl)cc3)c(=O)[nH]2)CC1
 : 2.1%	-0.7	-1.0	-6	-8	-2
60. COc1ccc(C)cc1NC(=O)CN1c2cccc3cccc(c23)S1(=O)=O
 : 0.0%	-0.4	5.9	-1	1	9

Entries listed so far with a Cl atom, in the order listed:
Under each structure – PINK1 expr mod	TRPML1 ag	D2 ag	D2 PAM	CtBP-E1A blk	Six1-Eya2 inh
13. COCC(=O)Nc1cc(C)cn(Cc2c(F)cccc2Cl)c1=O
 : -0.6%	1.0	0.9	4	2	26
21. O=C(Cc1ccccc1Cl)NCc1cccnc1
 : 5.1%	1.0	-3.3	-3	-1	4
24. Cc1ccc(S(=O)(=O)N(C)c2ccc(OCC(=O)Nc3cc(C(=O)O)ccc3Cl)cc2)cc1
 : -0.1%	2.1	6.1	0	1	1
31. O=C(NNC(=O)c1ccc(Cl)c(S(=O)(=O)Nc2ccc(Cl)cc2)c1)c1ccc(=O)[nH]c1
 : 0.4%	0.1	-5.5	-5	-10	-5
49. O=C(CCl)N1CCN(S(=O)(=O)c2ccc3c(c2)CCC3)CC1
 : -1.4%	-0.1	-5.4	-22	4	6
59. CC1CCN(C(=O)CSc2nc3c(cnn3-c3ccc(Cl)cc3)c(=O)[nH]2)CC1
 : 2.1%	-0.7	-1.0	-6	-8	-2

New compounds follow:
Under each structure – PINK1 expr mod	TRPML1 ag	D2 ag	D2 PAM	CtBP-E1A blk	Six1-Eya2 inh
61. CC[C@@]12C(=O)N(c3cccc(Br)c3)C(=O)N1[C@H](c1cccc(C)c1)[C@@H]1C(=O)N(Cc3ccccc3)C(=O)[C@@H]12
 : 0.6%	1.5	-2.3	-14	.	-3
62. O=S(=O)(CC(O)COc1ccccc1Cl)c1ccccc1 (configuration not stated)
 : 0.7%	0.1	-1.2	-3	3	-1
63. Cc1ccc(S(=O)(=O)NCCC(=O)NC(C)c2ccccc2)cc1 (configuration not stated)
 : -0.5%	-0.8	-0.7	-7	3	0
64. Cc1cccc(C(=O)NC(=S)Nc2cccc3nc(C)ccc23)c1
 : ?	2.0	-8.8	-16	-2	-18
65. COCCNC(=O)c1ccccc1-c1ccccc1C(=O)O
 : 2.7%	-0.1	-1.9	-4	3	13
66. COc1ccccc1NC(=O)N1CCC(C(=O)c2ccc(Cl)cc2)CC1
 : -1.4%	-0.6	0.1	-7	3	7
67. Cc1cc(C(=O)CNCc2ccco2)c(C)n1-c1ccc(F)cc1
 : -4.5%[38.3 µM]	0.5	2.3	-7	-18	-12
